AID504770 – E. coli YBA685 growth inhibition, screen for V. cholerae RctB inhibitors | E. coli YBA685 rctB-dependent plasmid, OD600 growth, 3 h; active compounds read low | z-score (concentration not given with the values) | hit rate 0.27% among 130,000 | AID 504770;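 active = z-score under -2 on both plates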;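 also: wells of about 30 µL received 100 nL stock; score is relative to mean and SD of the test wells; the first replicate is given; strong numbers were not always called active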
Ba CapD inh – CapD enzyme inhibition; purified CapD enzyme, fluorescence intensity read-out; active compounds read low; some hits fall short of the stated cut; z-score (no concentration beside the values); hit rate 0.23% among 140,000;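 active = z-score under -4 in either of two replicates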;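 also: stock transfer was 100 nL into about 40 µL; score is relative to mean and spread of the plate; one replicate is shown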
* marks the source's active call; other numbers are inactive results; i = inactive; x = not tested or not shown.

SMILES	AID504770	Ba CapD inh
Cn1cc(NC(=O)NCc2ccccn2)c2ccccc2c1=O	-2*	19
COc1cccc(C2CC(c3cccs3)=NN2C(=O)CSc2c[nH]c3ccccc23)c1OC (configuration not stated)	x	6.4
COC(=O)C1C(=O)OC(C)(C)C2CCC(C)CC12 (configuration not stated)	-1	-0.37
CC(CC(=O)O)S(=O)(=O)c1ccc(Cl)cc1 (configuration not stated)	-0.4	-0.77
CSc1cccc(NC2=CC(=O)CC(C)(C)C2)c1	-1.2	x
CC(C)(C)c1ccc(Cn2c(/C=C/c3ccccc3)nc3ccccc32)cc1	x	13
CCOc1ccc(C(=O)N=c2sc3cc(Cl)ccc3n2C)cc1	-0.5	0.6
O=C(O)CCn1ccc2ccccc21	-0.4	x
O=S(=O)(c1ccccc1)N1CCC(Cc2ccccc2)CC1	0.65	-0.045
Cc1ccc(C)c(-n2nnnc2SCC(=O)OC(C)c2nc3sc(C)c(C)c3c(=O)[nH]2)c1 (configuration not stated)	-0.05	x
COC(=O)CNC(=O)N1CCn2cccc2C1Cc1ccccc1 (configuration not stated)	-0.65	1.2
O=C1OC(Nc2nccs2)c2ccccc21 (configuration not stated)	-0.7	i
CCOc1cc(C2NC(=O)NC(C)=C2C(=O)Nc2ccc(Br)cc2)ccc1O (configuration not stated)	x	0.19
Nc1nnc(CC(=O)N2CCCCC2)o1	-0.3	-0.38
CNC(=O)c1ccsc1NC(=O)c1ccc(OC)c(OC)c1	-1.1	x
Cc1nc(SCC(=O)O)[nH]c(=O)c1CCC(C)C	1.5	-0.24
CSc1ccccc1NC(=O)COC(=O)/C=C/c1ccc(F)cc1	-0.1	-0.32
CCN(CC)C(=S)Nc1cc(C(=O)OC)ccc1C(=O)OC	-0.9	0.2
COc1ccc(CC(=O)O)cc1OC	-1	-0.25
Cn1ncc(C(=O)O/N=C(\N)c2ccccc2)c1-n1cccc1	-0.1	0.37
C=CCNc1ccccc1C(=O)NCC(=O)OCC	x	76
O=[N+]([O-])c1ccc(C2CC(c3cccs3)=Nc3ccccc3S2)cc1 (configuration not stated)	x	-0.05
CCOC(=O)c1cnc(SCC(=O)c2ccc(Cl)c(C)c2)nc1N	-0.65	-0.27
O=C1/C(=C\c2ccc(-c3ccc(Cl)cc3)o2)NC(=S)N1c1ccccc1	x	-0.49
C1=CCC(CN2CCN(Cc3ccccc3)CC2)CC1 (configuration not stated)	-0.6	x
COc1ccc(C2Nc3ccccc3C(=O)N2NS(C)(=O)=O)cc1OC (configuration not stated)	0.15	41
COc1cccc(N2C(=O)C(=O)/C(=C(\O)c3ccccc3)C2c2ccc(O)c(OC)c2)c1 (configuration not stated)	x	-0.76
COc1ccc(Cl)cc1NC(=O)CSC1=NN2CCCC(=O)N=C2S1	-1.2	0.14
COc1ccccc1-n1c(CNC(=O)c2cc(OC)c(OC)c(OC)c2)nnc1SCC(=O)N1CCc2ccccc21	x	-0.46
Cc1cc(NC(=O)CCN2C(=O)/C(=C/c3ccc4c(c3)OCO4)SC2=S)no1	x	-0.79

The list goes on; it opens with the 5 that closed the last part.
SMILES	AID504770	Ba CapD inh
COc1ccc(C2Nc3ccccc3C(=O)N2NS(C)(=O)=O)cc1OC (configuration not stated)	0.15	41
COc1cccc(N2C(=O)C(=O)/C(=C(\O)c3ccccc3)C2c2ccc(O)c(OC)c2)c1 (configuration not stated)	x	-0.76
COc1ccc(Cl)cc1NC(=O)CSC1=NN2CCCC(=O)N=C2S1	-1.2	0.14
COc1ccccc1-n1c(CNC(=O)c2cc(OC)c(OC)c(OC)c2)nnc1SCC(=O)N1CCc2ccccc21	x	-0.46
Cc1cc(NC(=O)CCN2C(=O)/C(=C/c3ccc4c(c3)OCO4)SC2=S)no1	x	-0.79
Cn1c(CCNC(=O)c2cnc(N3CCOCC3)nc2)nc2ccccc21	-0.65	0.49
CC(C)(C)NC(=O)Cn1c(=O)oc2ccc(Cl)cc21	-0.6	-0.13
O=C(CSc1nnc(CN2CCCC2)n1Cc1ccccc1)Nc1ccccc1	-0.35	x
CCOC(=O)Cc1csc(SCC(=O)c2ccc3c(c2)OCCO3)n1	-0.85	x
CCOC(=O)c1cc(C#N)c(SCC(=O)c2ccc(Br)cc2)nc1N	x	20
CC1CCCN(c2nc3nonc3nc2Nc2cccc(Cl)c2)C1 (configuration not stated)	1	x
Cc1ccc2nsnc2c1NC(=O)CC12CC3CC(CC(C3)C1)C2	-0.2	6.3
Cc1cc(C)nc(NC(=O)C(C)N2C(=O)c3ccccc3S2(=O)=O)n1 (configuration not stated)	0.05	x
Cc1ccc2c(c1)c(=O)c1ccccc1n2CC(=O)Nc1ccc(Oc2ccc(Cl)cc2)cc1	x	2.3
NS(=O)(=O)c1ccc(CCNC(=O)c2ccc(CSc3ccccn3)o2)cc1	x	-0.65
c1cncc(-c2ncc(-c3ccncn3)c(-c3ccncc3)n2)c1	x	0.18
CCOc1ccc(N2C(=O)c3ccccc3C2=O)cc1	-0.25	0.78
NC(=O)C1=C(N=C2CCCCC2)CCCC1	0.15	-0.07
Cc1ccc(C2C3=C(Nc4ncnn42)c2cc(Cl)ccc2OC3c2ccc(F)cc2)cc1 (configuration not stated)	x	-0.095
O=C(NCCN1CCCCCC1)c1cnn(-c2ccccc2)c1-n1cccc1	0.5	0.34

Not a retest: two of the compounds above.
SMILES	AID504770	Ba CapD inh
Cc1ccc(C2C3=C(Nc4ncnn42)c2cc(Cl)ccc2OC3c2ccc(F)cc2)cc1 (configuration not stated)	x	-0.095
O=C(NCCN1CCCCCC1)c1cnn(-c2ccccc2)c1-n1cccc1	0.5	0.34

Next part.
SMILES	AID504770	Ba CapD inh
CC(C)NC(=O)c1cc(Cl)cc(Cl)c1	0.7	1.4
CCOC(=O)c1c(C)[nH]c(C)c1S(=O)(=O)N(C)CC(=O)N(C)c1ccc(C)c(C)c1	-0.1	0.17
O=C(Nc1ccc2oc(-c3ccc(Cl)cc3Cl)nc2c1)c1ccc2c(c1)OCO2	-0.25	3.2
c1ccc(OCCn2c(-c3ccco3)nc3ccccc32)cc1	-1.6	11
O=C(Oc1cc(Cl)cc(Cl)c1)c1ccno1	-2.5*	-1.1
Cc1onc(-c2ccccc2)c1-c1csc(-c2ccno2)n1	-0.15	22
COC(OC)c1ccc(C#N)c(SCC(=O)c2ccc(C)cc2)n1	-1.2	-1.7
CN(C)CC(C)(C)CNC1CC2CCC1C2 (configuration not stated)	-0.05	0.47
Nc1nc(SCc2cccc3ccccc23)n[nH]1	-0.75	x
O=C(COc1nnc2c(n1)Nc1ccccc1S2)N1CCCc2ccccc21	-0.75	x
CNC(=O)CCCc1cn(Cc2ccc(C)cc2)c2ccccc12	0.15	0.18
COc1ccc(N2C(N)=C(C#N)C(c3ccc(F)cc3)C3=C2CC(C)(C)CC3=O)c(OC)c1 (configuration not stated)	x	-0.54
Cc1[nH]n(-c2ccccc2)c(=O)c1N=O	-0.6	x
COCC(=O)n1nc(-c2ccccc2)nc1NCc1ccccc1	-0.2	2.6
CCOc1ccccc1-n1c(=S)[nH]c2[nH]ncc2c1=O	x	0.29
C=CCOC(=O)C1=C(N)OC(C)=C(C(=O)OCc2ccccc2)C12C(=O)Nc1ccccc12 (configuration not stated)	x	-0.91
COc1ccnc(N=CNOCCOc2cccc(C(F)(F)F)c2)c1C#N	x	0.53
O=C1C2ON(c3ccccc3)C(/C=C/c3ccccc3)C2C(=O)N1c1ccc(Br)cc1 (configuration not stated)	0.55	-0.02
COC(=O)c1cccc(NC(=O)c2cnccn2)c1	-0.8	0.065
O=C(/C=C/c1ccc(F)cc1Cl)NNC(=O)c1cc(=O)n(-c2ccccc2)[nH]1	x	11
Cc1nnsc1C(=O)NNC(=O)OCCc1ccc(Cl)cc1Cl	x	-0.38
O=C1CC(O)(C(F)F)Oc2ccccc21 (configuration not stated)	0.55	2.6
c1ccc(-c2cc(N3CCOCC3)cs2)cc1	1.4	5.6
O=C(O)c1cnc(-c2ccccc2)nc1-c1ccccc1	0.65	-0.57
CCOC(=O)C1=C(C)Nc2[nH]c(=O)[nH]c(=O)c2C1c1ccccc1Cl (configuration not stated)	x	0
COc1ccc(C)cc1-n1nnnc1SCC(=O)N(CC(C)C)CC(C)C	-0.1	x
CC1(C)Cc2c(sc3nc(SCC(=O)O)n(Cc4ccccc4)c(=O)c23)CO1	x	0.34
CC1=C(C#N)C(C)C2=C(CC(C)(C)CC2=O)N1 (configuration not stated)	1.8	47
CCOc1ccc(NC(=O)CCNS(=O)(=O)c2ccc(Br)s2)cc1	-2.6	-0.14
COc1ccc(-c2cc(C(F)(F)F)n3ncc(C(=O)Nc4ccc(C(C)=O)cc4)c3n2)cc1OC	x	0.08
O=C(c1ccc2nc(N3CCCCC3)sc2c1)N1CCC2(CC1)OCCO2	0.2	-0.34
O=C1CCCN1C(=O)CSc1nc2c(Cl)cc(Cl)cc2[nH]1	-0.8	x
COC(=O)Cn1cc(C(=O)c2cccs2)c2ccccc21	0.3	x
COC(=O)c1c[nH]n2c(=O)c(Cc3ccc(F)cc3Cl)c(C)nc12	-0.2	-0.15
CCOC(=O)c1c(NC(=O)c2cc3ccccc3oc2=O)sc(C)c1-c1ccccc1	x	-0.44
CC1=C/C(=N\NC(=O)CCN2CCN(c3ccccc3)CC2)CC1	1.2	x
O=S(=O)(c1ccc(Cl)cc1Cl)N1CCCN(c2ncc(C(F)(F)F)cc2Cl)CC1	x	0.68
O=C(NCc1ccc2c(c1)OCO2)c1ccc(N2CCCC2=O)cc1	-0.4	-0.86
O=c1cnnc(N/N=C/C=C/c2ccccc2)[nH]1	-0.5	-3.6
CC(C1CC1)n1nccc1NC(=O)c1ccc(S(=O)(=O)N(C)C)cc1 (configuration not stated)	-0.15	x
O=C(COC(=O)C1=NNC(=O)CC1)NCC1CCCCC1	-0.1	x
COc1ccc(-c2csc3ncn(-n4c(C)ccc4C)c(=O)c23)cc1OC	-0.75	-0.21
CC(C)(C)c1cc(C(F)(F)F)n2ncnc2n1	0	-0.45
O=C(O)COc1ccc(C(=O)Cc2ccc3c(c2)OCCCO3)c(O)c1	-0.15	-0.23
CCC(=O)Nc1c(-c2ccc(C)cc2)nc2ccc(C)cn12	x	51

5 entries out of the list, arranged by count of non-hydrogen atoms, ascending.
SMILES	AID504770	Ba CapD inh
CC(C)(C)c1cc(C(F)(F)F)n2ncnc2n1	0	-0.45
O=c1cnnc(N/N=C/C=C/c2ccccc2)[nH]1	-0.5	-3.6
O=C1CCCN1C(=O)CSc1nc2c(Cl)cc(Cl)cc2[nH]1	-0.8	x
CC1=C/C(=N\NC(=O)CCN2CCN(c3ccccc3)CC2)CC1	1.2	x
CC(C1CC1)n1nccc1NC(=O)c1ccc(S(=O)(=O)N(C)C)cc1 (configuration not stated)	-0.15	x

(further entries)
SMILES	AID504770	Ba CapD inh
O=C(O)C1CCCN1c1nc(-c2ccccc2)c2cc(Br)ccc2n1 (configuration not stated)	x	-1.2
CCOc1ccc2c(c1)-c1c(ssc1=S)C(C)(C)N2	0.05	i
O=C(NCCCN1CCc2ccccc2C1)NCc1ccccc1	0.55	-0.11
CCn1c(Cc2ccccc2)n[nH]c1=S	-0.5	0.03
CCc1ccc(NC(=O)C(=O)NCCN2CCN(C(=O)c3ccco3)CC2)cc1	x	-0.27
c1ccc(-c2cc(-c3ccccc3)c(N3CCCC3)nn2)cc1	-0.4	0.28
O=C(Nc1ccc(N2CCOCC2)c2nonc12)c1cc2ccccc2oc1=O	0.3	0.42
Cn1ncc2c(N/N=C/c3ccc(Cl)cc3)ncnc21	x	-0.15
N#CCC(=O)NC1CCCCC1	x	0.43
Cc1nc2sc(C(c3cccc(F)c3)N3CCOCC3)c(O)n2n1 (configuration not stated)	0.1	-0.15
COc1ccc(Cl)cc1C(=O)Nc1ccc(-c2nc3cc(Cl)ccc3o2)c(O)c1	x	1.5
Cc1noc(C)c1S(=O)(=O)NCCN1CCC(Cc2ccccc2)CC1	-1.4	-0.15
CCCCC(=O)c1ccc(Br)cc1	x	0.27
Cc1ccsc1C1C(C#N)=C(N)Oc2nc(-c3ccccc3)[nH]c21 (configuration not stated)	-1.8	-0.58
O=c1[nH]c(Nc2ccccc2)cc2ccccc12	-0.7	x
CCc1nnc(SCc2cc(=O)n3ccccc3n2)c2cc3occc3n12	2.7	0.025
c1cncc(-c2cccnc2)c1	-1.9	0.4
Cc1nc(N2CCOCC2)nc(Nc2ccc(Cl)cc2)c1[N+](=O)[O-]	x	0.3
COc1ccccc1N1CCN(C(=O)CCCn2c(SCC(=O)NCc3ccccc3)nc3ccccc3c2=O)CC1	x	-1.4
CCN(CC)C(=S)SCc1ccc(C(=O)O)cc1	-0.7	-0.04
O=S1(=O)N=C(Oc2ccccc2Cl)c2ccccc21	-0.6	-0.35
O=C1C2C(c3ccc(Cl)cc3)OC3(C(=O)c4ccccc4C3=O)C2C(=O)N1c1ccc(F)cc1 (configuration not stated)	x	-0.67
COC(=O)c1c(C)nn(-c2ccccc2)c1-n1c(C)ccc1C	-1	-0.24
CCOC(=O)/C(C#N)=C/c1ccc2c(c1)Sc1ccccc1N2C	0.1	x
CC(C)C1C(=O)CC(c2ccccc2)NC1c1ccccc1 (configuration not stated)	2.1	0.26
c1ccc(-c2csc(-c3cccnc3)n2)cc1	x	4.6
CCN(CC)C(=O)CSc1nc2c(sc(=S)n2-c2ccccc2)c(=O)n1Cc1ccco1	x	-2.6
CC1=C(CC(=O)NNC(=O)c2cnn(-c3ccc(Cl)cc3)c2C(F)(F)F)c2cc(F)ccc2/C1=C\c1ccc(S(C)=O)cc1 (configuration not stated)	x	0.5
CCCNS(=O)(=O)c1ccc2c(c1)oc(=O)n2C	-0.1	-2
C=CCNC(=O)C1CC2CCCC(C1)C2=O (configuration not stated)	-0.45	1.1

Three compounds drawn at random from those above, as already listed:
SMILES	AID504770	Ba CapD inh
COC(=O)c1c(C)nn(-c2ccccc2)c1-n1c(C)ccc1C	-1	-0.24
CCN(CC)C(=S)SCc1ccc(C(=O)O)cc1	-0.7	-0.04
O=S1(=O)N=C(Oc2ccccc2Cl)c2ccccc21	-0.6	-0.35

Screens deposited in PubChem by ICCB-Longwood Screening Facility, Harvard Medical School.

An excerpt. The share of hits here may be higher or lower than overall.
